# Bioassay records deposited in PubChem BioAssay by National Center for Advancing Translational Sciences (NCATS).
# Six1-Eya2 inh: inhibitors of human Six1/Eya2 interaction. Q15475+O00167. AlphaScreen GST-Six1/His-Eya2 binding, biochemical; active compounds read low; control for the full effect not named in the record. activity change, % (concentration not given with the values). 0.56% of 360,000 active. AID 651725; in the data active = activity change below about -65%; inconclusive = about -30% to -65%; inactive = above about -30%; note: % is set by controls: 0 for no effect and ±100 for the full control effect
# Target sequence (O00167 whole entry, looked up): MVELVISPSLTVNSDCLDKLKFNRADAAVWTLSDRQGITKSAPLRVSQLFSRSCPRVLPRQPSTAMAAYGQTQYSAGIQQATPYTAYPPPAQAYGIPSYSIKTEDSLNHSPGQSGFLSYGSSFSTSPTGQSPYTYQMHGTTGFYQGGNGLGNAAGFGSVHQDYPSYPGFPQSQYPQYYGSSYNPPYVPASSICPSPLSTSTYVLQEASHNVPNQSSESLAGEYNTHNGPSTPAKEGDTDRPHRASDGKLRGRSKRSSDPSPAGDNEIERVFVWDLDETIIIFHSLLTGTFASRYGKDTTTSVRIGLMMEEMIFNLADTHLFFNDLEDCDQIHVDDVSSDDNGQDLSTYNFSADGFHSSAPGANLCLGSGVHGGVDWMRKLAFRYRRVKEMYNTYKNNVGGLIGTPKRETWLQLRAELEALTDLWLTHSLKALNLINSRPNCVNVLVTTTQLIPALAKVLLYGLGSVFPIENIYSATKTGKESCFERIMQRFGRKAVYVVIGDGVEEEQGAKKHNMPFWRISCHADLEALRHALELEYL
# Target sequence (Q15475 whole entry, looked up): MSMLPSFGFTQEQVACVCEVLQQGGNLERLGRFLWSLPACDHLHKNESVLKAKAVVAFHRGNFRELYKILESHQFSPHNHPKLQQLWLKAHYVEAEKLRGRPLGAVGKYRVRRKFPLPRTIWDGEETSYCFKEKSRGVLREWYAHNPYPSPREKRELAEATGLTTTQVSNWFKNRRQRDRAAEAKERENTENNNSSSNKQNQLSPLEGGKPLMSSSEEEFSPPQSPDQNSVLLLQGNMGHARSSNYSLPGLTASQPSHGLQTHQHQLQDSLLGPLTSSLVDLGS
#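 GST-Six1 + His-Eya2 (5X stock: 250/500 nM); Tris pH 8.0, 300 mM NaCl, 0.05% BSA, 0.02% Tween 20; GSH donor/Ni acceptor beads; 1 h 37 °C dark; AlphaScreen readout.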
# TRPML1 blocker: inhibitors of human TRPML1 channel. activity change, negative = inhibition, % (no concentration beside the values). TRPML1-inducible cells, Ca2+ dye fluorescence, FDSS; active compounds read low; inhibition of EC80 agonist-evoked calcium signal. 0.02% of 390,000 active; in the data active means activity change below about -50%; inconclusive means about -30% to -50%; inactive means above about -30%;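 note: stimulus is agonist 54-4 at its EC80 concentration; % is set by controls: 0 for no effect and ±100 for the full control effect; compound concentration not given in the record; the text of the record puts the active cut at -80%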
#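 Tet-induced TRPML1-DL cells loaded with Ca8 no-wash calcium dye were read kinetically on FDSS. Compound addition was followed by EC80 agonist 54-4 (4 uM final); inhibition was read over 110 s.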
# PINK1 modulator: changes PINK1 expression. PINK1 immunofluorescence, high-content cytometry, 24 h. Potency, µM (doses to about 76.6 µM), inactives show at the highest dose activation (PINK1 increase), most hits filed as activators. 0.2% of 410,000 active; active = well fitted activation curve with a large enough effect; inconclusive = small, poorly fitted or top-dose-only effect; inactive = flat fitted curve, though single readings scatter; cell line not stated here;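 note: potency is the fitted concentration of half-maximal effect; % of control where 0% means no effect; nearly all actives have a fitted effect of over 65% in size; a mitochondrial uncoupler was the plate control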
#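 PINK1 protein level read as immunofluorescence by microplate cytometer in a fixed, stained stable cell line after 24 h exposure to five compound concentrations, with CCCP as control.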
# D2 agonist: activates the human D2 dopamine receptor; P14416; DiscoveRx PathHunter D2 beta-arrestin, luminescence, 90 min; 100% = 57 uM dopamine signal; activation, % (concentration not given with the values); 0.084% of 360,000 active; in the data active = activation above about 40%; inconclusive = about 15% to 40%; inactive = below about 15%; note: compound concentration not given in the record; the text of the record calls up to 30% inactive
#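 Agonist mode: compounds alone added to overnight-plated D2 PathHunter cells for 90 min at 37 C, with 57 uM final dopamine (EC100) defining full response. Beta-arrestin recruitment detected by chemiluminescent reagent, read after 1 h at ambient temperature.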
# D2 PAM: potentiates the human D2 dopamine receptor allosterically; 0.23% of 360,000 active; P14416; DiscoveRx D2 beta-arrestin cells, luminescence, 90 min; 100% = 57 uM dopamine signal; potentiation, % (test concentration not listed); active = potentiation of 50% or more; inconclusive = 30% to 50%; inactive = 30% or less;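 note: compound concentration not given in the record; tested on top of an EC20 dose of dopamine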
#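 PathHunter beta-arrestin assay in DiscoveRx D2 cells. Compounds were added with an EC20 of dopamine (50 nM final) for 90 min at 37 deg C. Luminescence was read 1 h after detection reagent, with 57 uM dopamine as the EC100 control.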
# TRPML1 ag: activates the human TRPML1 channel. Q9GZU1. TRPML1-expressing cells, Ca2+ dye fluorescence, FDSS; host cell line not named in the record; reference of the full effect not given here. activation, % (test concentration not listed). 0.12% of 410,000 active. AID 624414; in the data active = activation above about 50%; inconclusive = about 30% to 50%; inactive = below about 30%; note: 0% is about no effect; the text of the record puts the active cut at 80%
#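 TRPML1-DL cells, Tet-induced overnight (~16 h, 37 degrees C), loaded 45-90 min at room temperature with Ca8 no-wash calcium dye plus quencher. FDSS fluorescence: 10 s baseline, compound pin-transfer, 110 s agonist read, then EC80 54-4 (4uM final) and 110 s antagonist read.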
# An asterisk follows results filed as active; ? = inconclusive; . = not tested or not shown; & = joins results of further samples; [ ] = another dose, or the depositor's remark.
# The line under a structure holds: D2 agonist, PINK1 modulator, TRPML1 ag, D2 PAM, TRPML1 blocker, Six1-Eya2 inh
- COCOCCn1cc(CN2CCS(=O)(=O)N(Cc3ccc(-c4ccc(OC)c(OC)c4)cc3)C(CC(C)C)C2=O)nn1 (configuration not stated)
    0.9, 3.5%, 0.3, -1, 3, -8
- O=C(CC(C(=O)O)c1cccc(Cl)c1Cl)c1ccccc1 (configuration not stated)
    -3.7, 0.5%, -1.3, -10, -6, 5
- O=C(O)c1cccc(NC(=O)C2CC(=O)N(Cc3ccccc3)C2)c1 (configuration not stated)
    2.3, -0.9%, -0.2, 9, -9, -1
- Cc1nc(N2CCCCC2C)c2c(C)c(C(=O)Nc3ccccc3C(F)(F)F)sc2n1 (configuration not stated)
    0.5, 19%, 1.8, -1, 0, -1
- c1ccc2sc(Sc3ncnc4sccc34)nc2c1
    6.7, 13%, -0.7, -2, 6, -4
- CC(C)(C)NC(=O)c1cnn2c(C(F)F)cc(-c3ccccc3)nc12
    ., 1.0%, 0.3, ., 22, .
- CCCCNC(=O)CC(=O)Nc1ccccc1C(=O)O
    -0.7, 4.0%, -0.3, 22, -9, 8
- CCOc1ccc(N2CC(c3nc4ccccc4n3CCCOc3ccccc3)CC2=O)cc1 (configuration not stated)
    ., 0.2%, 1.3, ., -11, .
- Cc1c(N)cccc1-n1cccc1
    3.7, 0.3%, -0.4, -19, 10, 2
- O=[N+]([O-])c1ccc(CN2CC(N3CCN(CCO)CC3)CS2(=O)=O)cc1 (configuration not stated)
    -8.3, -0.1%, -0.5, 0, 41, 2
- CCCc1cc(=O)[nH]c(SCC(=O)N2CCCc3ccccc32)n1
    -6.1, -0.4%, -0.6, -17, 2, 6
- O=C(Nc1cc(C(=O)N2CCOCC2)cc(C(=O)N2CCOCC2)c1)c1cc(F)c(F)cc1Cl
    -2.3, ., 0.9, 10, 2, 7
- OCCN(CCO)CC(O)Cn1c2ccccc2c2ccccc21 (configuration not stated)
    -2.7, -3.0%[38.3 µM], 0.0, -6, -16, 6
- CCOC(=O)Cc1csc(NC(=O)CSc2nc3cccnc3n2CC)n1
    2.9, -1.7%, -0.2, -2, -6, -19
- Cc1ccccc1NC(=O)CSc1ccc(-c2cccnc2)nn1
    -1.6, 1.9%, -0.3, 15, -16, -1
- COc1ccc(NC(=O)CS(=O)(=O)c2cn(CC(=O)N3CCOCC3)c3ccccc23)cc1
    -2.0, 1.7%, 0.3, -9, -13, 4
- CC[n+]1ccc(C)c2cc(P(=O)(c3ccccc3)c3ccccc3)ccc21
    -2.0, -0.2%, 0.5, -5, 2, 3
- O=C(CC1CCCC1)Nc1ccc(Br)cc1
    -2.9, 2.4%, 0.7, -3, -1, 6
- O=C(CSC1=NCCS1)c1ccc(Cl)cc1
    -1.6, 3.9%, -0.3, -16, 23, -2
- Cc1ccc(/C=N/NC(=O)c2cc3ccccc3cc2O)o1
    1.1, 4.3%, -0.2, -9, 0, -17
- CC1(O)CC2CC1C(C(=O)O)C2C(=O)O (configuration not stated)
    -2.1, -2.2%, -0.1, -10, 2, 5
- CN1CCN(c2ccc(NC(=O)c3ccc(C(F)(F)F)cc3)cn2)CC1
    -0.7, 2.2%, 1.0, 0, -13, -5
- CCN(C(=O)CSc1ccc2ccccc2n1)C1CCCCC1
    1.3, -0.9%, 3.2, -19, 16, -1
- O=C(CN1C(=O)c2cccc3cccc1c23)Nc1ccccc1C(=O)NCc1ccco1
    -1.1, -0.3%, 9.7, 11, 6, 4
- CC(C(=O)Nc1ccc(F)c(F)c1F)N(C)CC(=O)Nc1ccccc1Br (configuration not stated)
    -3.9, 0.9%, 0.8, -6, 21, 5
- CC(=O)c1ccc(NC(=O)Cn2ncc3c(C)n(Cc4ccc(F)cc4)c(C)c3c2=O)cc1
    ., -0.3%, 0.0, ., -1, .
- CC1(c2nnc(-c3ccccc3)o2)CC(c2cccnc2)=NO1 (configuration not stated)
    -1.0, -0.5%, 0.7, -3, 2, 11
- CCC(C)(CCNC(=O)Cc1ccccc1)c1ccccc1OC (configuration not stated)
    -1.6, ?, 0.5, -12, 5, 6
- COCCNC(=O)Cn1c(=O)n(Cc2ccc(C(=O)NCCc3ccc(OC)c(OC)c3)cc2)c(=O)c2ccccc21
    0.7, -0.5%&1.8%, 0.0&-0.1, -2, -24&-8, 9
- Cc1ccc(CN2C(=O)c3ccccc3C2C(=O)NCc2cccnc2)cc1 (configuration not stated)
    -4.9, 0.4%, -0.4, -3, -3, -1

# 5 compounds picked at random from those above, as already listed:
# The line under a structure holds: D2 agonist, PINK1 modulator, TRPML1 ag, D2 PAM, TRPML1 blocker, Six1-Eya2 inh
- Cc1ccc(CN2C(=O)c3ccccc3C2C(=O)NCc2cccnc2)cc1 (configuration not stated)
    -4.9, 0.4%, -0.4, -3, -3, -1
- CC(C)(C)NC(=O)c1cnn2c(C(F)F)cc(-c3ccccc3)nc12
    ., 1.0%, 0.3, ., 22, .
- O=[N+]([O-])c1ccc(CN2CC(N3CCN(CCO)CC3)CS2(=O)=O)cc1 (configuration not stated)
    -8.3, -0.1%, -0.5, 0, 41, 2
- O=C(CC(C(=O)O)c1cccc(Cl)c1Cl)c1ccccc1 (configuration not stated)
    -3.7, 0.5%, -1.3, -10, -6, 5
- CCOC(=O)Cc1csc(NC(=O)CSc2nc3cccnc3n2CC)n1
    2.9, -1.7%, -0.2, -2, -6, -19

# (further entries)
# The line under a structure holds: D2 agonist, PINK1 modulator, TRPML1 ag, D2 PAM, TRPML1 blocker, Six1-Eya2 inh
- CC1CCCCC1NC(=O)Cn1c(CN2CCCCC2)nc2ccccc2c1=O (configuration not stated)
    -1.5, ., -0.1, -5, 7, 2
- Cn1nc(-c2ccccc2)c(CO)c1Sc1ccccc1
    0.6, 5.2%, 0.6, 3, 2, 3
- Cc1c(NC(=O)CN2CCN(c3ccc([N+](=O)[O-])cc3)CC2)c(=O)n(-c2ccccc2)n1C
    -6.5, 0.0%, -0.4, -3, 5, -12
- COc1cc(/C=N/NC(=O)CCN2CCN(c3ccccc3)CC2)cc(OC)c1OC
    0.6, 5.9%, 0.0, -17, 3, -82*
- Cc1ccc(/C=N/n2c(C)nc3ccccc3c2=O)o1
    -2.4, 0.6%, 0.4, 0, -22, 1
- O=C(NNC(=O)c1nn(-c2ccc(F)cc2)ccc1=O)c1ccccc1Cl
    -1.6, 2.3%, -0.4, -4, 6, -21
- CCNC(=S)N1CCN(CC(=O)Nc2ccc(OC)cc2)CC1
    -1.7, -1.6%, -0.3, -3, -4, 0
- Nc1ncnc2c1ncn2[C@@H]1O[C@H](CNS(=O)(=O)c2cc(S(=O)(=O)c3ccccc3)cs2)[C@@H](O)[C@H]1O
    -0.1, -0.2%, -0.6, -4, -10, 5
- CC(CCc1ccccc1)NS(=O)(=O)c1ccc(Cl)c(C(=O)O)c1 (configuration not stated)
    -7.4, 4.5%, -1.6, -2, 6, -1
- CCNC(=S)Nc1ccc(Cc2ccncc2)cc1
    3.3, -1.0%, -0.6, -1, 15, -2
- Fc1ccc(CNc2nc3ccc(Cl)cc3n3nnnc23)cc1
    ., 4.4%, -0.1, ., 13, .
- O=C(O)C1CCCCN1S(=O)(=O)c1ccc2ccccc2c1 (configuration not stated)
    -0.7, ., -0.3, 27, -15, 6
- Cc1cc(C(=O)COC(=O)c2ccc(N)c([N+](=O)[O-])c2)c(C)n1Cc1ccc2c(c1)OCO2
    -2.4, 17%, 0.3, 3, -4, -1
- CCN(c1ccccc1)c1nc2nonc2nc1NCCO
    1.3, -0.6%, 1.6, 1, -9, 0
- CCOC(CNC(=O)CCc1c(C)nc2ncnn2c1C)OCC
    -1.6, -1.6%, 0.8, -18, -1, 8
- CCOc1ccccc1CNC(=O)c1cc(-c2ccc(C)c(C)c2)nc2ccccc12
    ., -0.6%, -0.3, ., 13, .
- O=C(/C=C/c1ccc2c(c1)OCO2)c1cccnc1
    1.3, -0.8%, 0.0, -5, -12, -6
- CCc1cccc(NC2c3ccccc3C(=O)N2c2ccc(C)cn2)c1 (configuration not stated)
    -5.9, 15%, 2.3, -3, 17, 1
- CCc1nnc(NC(=O)c2oc3cc(C)c(C)cc3c2C)s1
    -0.2, 2.3%, -0.4, -26, 7, 1
- Cc1cc(-n2c(SCC(=O)NCCC3=CCCCC3)nc3n[nH]c(C)c3c2=N)ccc1Cl
    4.4, -0.1%, 2.2, -7, -12, -4
- COc1ccc(S(=O)(=O)Cc2ccc(C(=O)N3CCN(c4ccccc4)CC3)o2)cc1
    2.8, 4.0%, 0.1, -1, 4, 16
- N#CNC(=Nc1ccc(Cl)cc1)Oc1ccccc1
    -2.6, 4.2%, 1.2, -10, 4, -7
- CCc1cc(=O)oc2cc(C)c(CN3CCCC(C)C3)c(O)c12 (configuration not stated)
    -1.3, 1.1%[38.3 µM], 0.9, -2, 4, -24
- Cc1ccc(Cn2c(CN3CCN(c4cccc(Cl)c4)CC3)nc3c2c(=O)n(C)c(=O)n3C)cc1
    ., -0.4%, 1.2, ., -15, .
- C[C@H](NC(=O)c1ccccc1Cl)C(=O)NCc1cccs1
    1.0, 0.7%, 0.5, -8, 1, 5
- CN1[C@@H]2CC[C@H]1CC(OC(=O)C(CO)c1ccccc1)C2 (some centres not stated)
    -4.5, 1.6%, 0.5, -8, 36, 6
- COCCn1c(C)cc(O)c(C(c2ccccc2)N2CCN(C)CC2)c1=O (configuration not stated)
    ., 0.2%, 1.1, ., 6, .
- c1ccc(CNc2ncnc3nc[nH]c23)nc1
    -3.3, 2.0%&-1.0%, -0.1&-1.0, -6, 18, -9
- O=C(Nc1cc(C(F)(F)F)cc(C(F)(F)F)c1)O[C@@H]1c2ccccc2[C@@H]2Cc3csc[n+]3[C@H]12
    ., ?, 1.8, ., ., -5
- Cc1cccc(NC(=O)c2nc[nH]c2C(=O)N[C@@H](Cc2ccccc2)C(=O)OC(C)(C)C)c1
    -4.7, 1.9%, -0.8, -9, -3, -9
- O=C(c1cccc(C(F)(F)F)c1)C1CCCN(C(=O)CN2CCCC2=O)C1 (configuration not stated)
    -3.0, 0.9%, -0.1, -1, 32, -6
- Cc1c(C(=O)N/N=C/C(C)C)[nH]c2c([N+](=O)[O-])cccc12
    2.5, 21%, -0.2, -3, 4, -7
- CN(C)CCCn1c(SCC(=O)N2CC(=O)Nc3ccccc32)nc2ccccc2c1=O
    -4.8, -0.5%, -0.5, -15, 4, -6
- COCCc1nnc(NC(=O)C23CC4CC(CC(C4)C2)C3)s1
    1.4, 4.4%, -0.6, 3, 16, 3
- CCn1c2c(c(=O)n3ncc(C(=O)Nc4cc(Cl)ccc4OC)c13)CN(Cc1ccc(OC)cc1)CC2
    ., 0.8%, 1.7, ., 12, .
- CCOC(=O)c1cc(-c2nnc(-c3ccc(Cl)cc3)o2)c(C)nc1C
    5.2, 3.4%, -0.1, -1, -1, -20
- CN(C)c1ccc2c(=O)[nH][nH]c(=O)c2c1
    -3.0, 1.4%, 0.4, -10, -2, 1
- C=CCOc1ccc(/C=C/C(C)=N\O)cc1
    -1.2, ., 0.8, 4, 18, -2
